Screening data deposited in PubChem BioAssay by several laboratories.
eIF4H FP inh: human eIF4H binding inhibitors, primary screen, translation initiation inhibitor project, biochemical, uHTS, fluorescence polarization; eIF4H fluorescence polarization binding assay; inhibition, % at 35 µM; 290,000 tested, 0.94% active;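 active = 50% or more with normal probe brightness, or confirmed in later tests; about a fifth of its hits are not listed in these tables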;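 note: calls also rest on retests at 20 µM and on dose response follow-up; 0% = protein and probe with vehicle and 100% = probe without protein; strong numbers were not always called active; many hits fall short of the cut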
Rce1 inh: yeast Rce1p protease inhibitors, primary screen, biochemical, fluorescence, cell-free homogeneous; yeast membranes, quenched prenylated peptide cleavage fluorescence; CAAX prenyl protease 2 (Saccharomyces cerevisiae (strain ATCC 204508 / S288c)), Q03530; calls only; 290,000 tested, 0.27% active;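 active = fall in fluorescence gain of 50% or more versus controls, with final raw signal at or below 3038400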;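 note: plate controls were neutral control wells for no effect and wells lacking membranes for full effect; tested at 10 µM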
Target sequence (Q03530 whole entry, looked up): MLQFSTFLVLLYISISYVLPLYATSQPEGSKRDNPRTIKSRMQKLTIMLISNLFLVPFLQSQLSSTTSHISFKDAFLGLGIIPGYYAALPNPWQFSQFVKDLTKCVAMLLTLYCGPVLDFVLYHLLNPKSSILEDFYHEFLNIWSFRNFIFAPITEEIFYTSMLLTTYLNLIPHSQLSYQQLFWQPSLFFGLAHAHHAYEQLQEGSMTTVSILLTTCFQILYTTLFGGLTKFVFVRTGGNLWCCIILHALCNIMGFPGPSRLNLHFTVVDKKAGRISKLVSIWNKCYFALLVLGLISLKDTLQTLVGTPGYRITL
MT1-MMP act inh: blockers of MT1-MMP proenzyme processing, primary screen, HT1080 RFP-PRO-GFP cells, GFP/RFP fluorescence. Matrix metalloproteinase-14 (Homo sapiens), P50281. GFP/RFP ratio fluorescence, overnight; percent of plate control window, DMSO zero. GFP/RFP ratio change, % at 20 µM. 360,000 tested, 0.061% active;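 active = GFP/RFP ratio change of at least 30% with cell ATP level not reduced by more than half and red fluorescence within 50% of control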; note: strong numbers were not always called active
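Test system: HT1080 RFP-PRO-GFP cells; Benchmarks: DMSO and RFP-L50D-GFP cell wells; Timing: cells overnight before dosing, compound overnight, 37 °C, 5% CO2; Compound: one 20 µM compound dose with 1% DMSO; Read-out: GFP/RFP fluorescence ratio.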
CSC inhib: cancer stem cell viability inhibitors, primary screen, luminescence; inhibition, % at 7.5 µM; 300,000 tested, 1.1% active; cancer stem cell-like cells viability;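 active = mean at 75% or more and at least half the replicates too; tested in HMLE shEcad cells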;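 note: 0% = median of negative and 100% = median of positive control wells; the first replicate is given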
PABP FP inh: PABP poly(A) RNA binding inhibitors, primary screen, biochemical, fluorescence polarization, uHTS; inhibition, % at 35 µM; Polyadenylate-binding protein 1 (Homo sapiens), P11940; 290,000 tested, 1% active;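 active = 50% or more with normal probe brightness, or confirmed in later tests; about a fifth of its hits are not listed in these tables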;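 note: calls also rest on retests at 20 µM and on dose response follow-up; controls were probe without protein and protein plus probe with vehicle; some compounds called inactive have numbers as strong as hits; many hits fall short of the cut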
Target sequence (P11940 whole entry, looked up): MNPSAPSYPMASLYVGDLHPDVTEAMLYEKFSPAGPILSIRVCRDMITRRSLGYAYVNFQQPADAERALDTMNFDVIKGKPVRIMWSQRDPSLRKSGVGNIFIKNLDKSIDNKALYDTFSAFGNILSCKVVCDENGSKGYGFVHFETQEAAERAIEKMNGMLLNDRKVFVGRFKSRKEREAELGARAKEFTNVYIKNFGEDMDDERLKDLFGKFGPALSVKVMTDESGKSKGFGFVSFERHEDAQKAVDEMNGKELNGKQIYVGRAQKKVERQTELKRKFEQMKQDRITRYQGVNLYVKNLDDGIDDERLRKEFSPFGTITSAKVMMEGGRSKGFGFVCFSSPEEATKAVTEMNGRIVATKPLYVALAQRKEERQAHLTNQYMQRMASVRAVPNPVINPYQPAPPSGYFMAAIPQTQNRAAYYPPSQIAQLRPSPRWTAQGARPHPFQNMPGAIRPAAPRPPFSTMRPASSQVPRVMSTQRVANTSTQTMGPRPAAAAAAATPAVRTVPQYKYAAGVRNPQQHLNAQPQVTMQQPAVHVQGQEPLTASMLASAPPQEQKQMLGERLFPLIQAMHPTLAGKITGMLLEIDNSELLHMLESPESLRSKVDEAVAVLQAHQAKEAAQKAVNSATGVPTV
UUG fidelity: modulators of yeast start codon fidelity, primary screen, whole organism, S. cerevisiae, single point, plate reader. S. cerevisiae UUG-firefly luciferase reporter, luminescence/redox ratio. activity score, % at 18.7 µM. 350,000 tested, 0.13% active. AID 602363, 2012;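 active = replicate mean at a twofold rise or more, about +100% in these data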;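 note: firefly luciferase made from a UUG start codon reports start codon fidelity; reporter light over untreated wells divided by growth signal over untreated wells; some hits fall short of that in this replicate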
Env fusion inh: inhibitors of HIV-1 Env-driven cell-cell fusion, primary screen, HeLa-JRFL effector, CEM21 target cells, luciferase; inhibition, % at 12.3 µM; 360,000 tested, 1.1% active; AID 651610, 2012;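 active = mean replicate inhibition score of at least 50 and every replicate individually at or above 50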;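 note: 0% = plate neutral controls and 100% = maraviroc near 300 nM; one replicate is shown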
eIF4H FP inh retest: further read-out of eIF4H FP inh, marked with its call; inhibition, %; compound at 20 µM; confirmation average;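 mean of two retest wells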
PABP FP inh retest: further read-out of PABP FP inh, marked with its call; inhibition, %; compound at 20 µM; confirmation repeats;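 mean of two retest wells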
MT1-MMP act inh RFP: recorded beside MT1-MMP act inh, whose call it bears; RFP signal change, %; measured here: RFP expression control read;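 0 = vehicle wells; hits needed this value within 50% of zero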
An asterisk follows results filed as active; i = inactive; nt = no result given; & = joins results of further samples.

SMILES	eIF4H FP inh	Rce1 inh	MT1-MMP act inh	MT1-MMP act inh RFP	CSC inhib	PABP FP inh	UUG fidelity	Env fusion inh	others
CCN(CC)C(=O)C1=C(C)N(Cc2ccc(C(C)(C)C)cc2)C(=O)C(CC(=O)NCCCN(C)C)C1 (stereo not drawn)	nt	nt	-2	0	nt	nt	0	3
O=C(NNC(=S)NC(=O)c1ccccc1)c1ccc([N+](=O)[O-])cc1	0	i	4	1	19	-3	-19	17
CC(C)(C)c1ccc(OCCC(=O)OCC(=O)NC(=O)NC2CCCC2)cc1	nt	i	0	4	-4	nt	nt	3
Cc1cc(C)n2nc(C(=O)Nc3cccc(S(=O)(=O)N4CCCC4)c3)nc2n1	1	i	1	4	-2	6	nt	16
O=C(N/N=C\c1cc2c(cc1Cl)OCO2)c1ccc(Br)s1	-11	i	3	-2	nt	-8	-20	-62
C=C1CCN(CC(=O)OC)S(=O)(=O)c2ccccc21	-4	i	6	2	-6	-10	-25	-4
O=C(O)C1C2CCC(C2)C1C(=O)NCCc1ccccc1 (stereo not drawn)	-9	i	-2	1	8	-14	1	-40
O=c1c2ccccc2c(-c2ccccc2)nn1-c1cc(Cl)cc(Cl)c1	1	i	-1	0	-6	-2	-20	0
COc1cccc(CNC(=O)c2cc(C3CC3)nc3c2cnn3C(C)C)c1	nt	nt	-1	-6	15	nt	-10	nt
COC(=O)c1sccc1NC(=O)c1ccc2c(c1)OCO2	5	i	-3	0	-23	-6	7	nt

4 structures from above, arranged by formula weight, smallest number first.
SMILES	eIF4H FP inh	Rce1 inh	MT1-MMP act inh	MT1-MMP act inh RFP	CSC inhib	PABP FP inh	UUG fidelity	Env fusion inh	others
O=C(O)C1C2CCC(C2)C1C(=O)NCCc1ccccc1 (stereo not drawn)	-9	i	-2	1	8	-14	1	-40
O=c1c2ccccc2c(-c2ccccc2)nn1-c1cc(Cl)cc(Cl)c1	1	i	-1	0	-6	-2	-20	0
CC(C)(C)c1ccc(OCCC(=O)OCC(=O)NC(=O)NC2CCCC2)cc1	nt	i	0	4	-4	nt	nt	3
Cc1cc(C)n2nc(C(=O)Nc3cccc(S(=O)(=O)N4CCCC4)c3)nc2n1	1	i	1	4	-2	6	nt	16

The list continues.
SMILES	eIF4H FP inh	Rce1 inh	MT1-MMP act inh	MT1-MMP act inh RFP	CSC inhib	PABP FP inh	UUG fidelity	Env fusion inh	others
CCOC(=O)C(NC(=O)CC(C)C)(Nc1sc(C)c(CC)c1C#N)C(F)(F)F (stereo not drawn)	0	i	-11	-9	nt	0	nt	nt
O=C(CN1C(=O)C(=O)c2ccccc21)NCCc1ccccc1	6	i	0	7	-5	7	nt	16
Cc1cccc(NC(=O)c2ccc(Cl)c(S(=O)(=O)N3CCCCCC3)c2)n1	nt	nt	-1	-1	0	nt	6	14
COc1ccc(F)c(-c2nc(CN3CCN(C(=O)c4ccco4)CC3)c(C)o2)c1	-3	nt	0	-1	-7	0	7	15
COc1ccc(C)cc1N(C(=O)CNC(=O)c1ccco1)C(C(=O)NCC1CCCO1)c1ccccc1 (stereo not drawn)	-14	i	-6	1	-15	6	-11	0
O=C(C1CCN(S(=O)(=O)c2ccc(Br)s2)CC1)N1CCc2ccccc21	-3	i	-1	-8	3	-7	-7	nt
CC1=C[C@H]2OC(=O)[C@@H](C)[C@H]2C[C@@H]2[C@H]1C[C@@H](O)[C@@]2(C)O	-4	i	-2	1	6	7	-8	5
O=C(CC12CC3CC(CC(C3)C1)C2)NC(Cc1ccccc1)C(=O)O (stereo not drawn)	-2	i	2	-1	-12	-4	-7	10
Cc1ccc(-c2noc(CCCOc3ccc(Cl)cc3Cl)n2)cc1	3	i	-3	3	4	-6	-16	-21
CN(C(=O)CC1C(=O)NCCN1CC1CCCCC1)C1CCOCC1 (stereo not drawn)	4	i	10	5	6	-1	-2	3
CCCCCCn1c(N2CCC(C)CC2)nc2c1c(=O)[nH]c(=O)n2C	4	i	0	-7	-11	-12	10	nt
CCOc1ccc(CNc2ccc3c(c2)ncn3C(C)(C)C)cc1	5	i	4	-3	1	0	3	-39
O=C(c1ccc(Cl)cc1)N(c1ccccn1)C1CCCCC1	1	i	2	-1	-7	-21	3	28
COc1ccc(N2C(=O)CC(Sc3nc4ccccc4s3)C2=O)cc1OC (stereo not drawn)	-10	nt	0	6	-5	-1	-4	18
COC(=O)C1=C(C)NC2=C(C(=O)CC(C)(C)C2)C1c1ccccn1 (stereo not drawn)	7	i	5	-2	-7	-5	-2	nt
C/C(=C\C(=O)c1c(O)cc(C)oc1=O)N(C)C	54	i	0	5	8	2	nt	15	eIF4H FP inh retest=28;PABP FP inh retest=44
CC(C)CCc1noc(CN2CCN(CC(=O)NC(C)C)CC2)n1	-4	i	3	-9	3	-3	-13	-19
Cc1c(C(=O)N2CCN(Cc3nccn3C)CC2)oc2c(F)cccc12	nt	nt	0	6	nt	nt	-1	-9
CCOC(=O)N1CCN(CCC(=O)Nc2cc(OC)ccc2OC)CC1	-3	i	2	5	-7	-2	-2	12
Cc1ccccc1Cn1cnc2ccccc21	6	i	0	-14	8	2	-12	-15
CC(=O)OCc1nc2ccccc2s1	4	i	-5	4	-8	4	-11	-93
Cc1ccc(OC(=S)Nc2ccccc2)c(C)c1	-2	i	2	-2	6	-1	-25	-109
CC(NC(=O)COC(=O)c1ccco1)c1ccccc1 (stereo not drawn)	-14	nt	-4	-10	-7	-3	-1	-9
CN(C(=O)CSc1nnnn1-c1ccccc1)C1CCS(=O)(=O)C1 (stereo not drawn)	-3	i	-5	2	7	5	nt	13
Cc1cccc(C(=O)Nc2cccc(OC(=O)c3cccc(C)c3)c2)c1	-8	i	-2	2	nt	-1	10	nt
C=CCn1c(COc2ccc(Cl)cc2)nnc1SCC(=O)N/N=C/c1ccccc1	16	i	3	2	9	-6	-21	nt
O=C(c1ccccc1)c1cccn1CC(=O)N1CCCCCC1	0	i	-2	3	nt	1	nt	nt
CC(C)C(=O)Nc1ccccc1C(=O)N/N=C/c1ccc([N+](=O)[O-])cc1	5	i	0	0	15	1	-26	-29
CCCOc1ccc(N2C(=O)CC(N(CCCO)C(=O)CC)C2=O)cc1 (stereo not drawn)	-2	i	-3	-1	26	-1	1	16
CN(C)S(=O)(=O)N(CC(=O)Nc1ccc(F)c(F)c1)c1ccccc1	15	i	7	12	-7	0	-9	nt
CCc1ccc(NC(=O)C2CCN(S(=O)(=O)c3ccc4c(c3)N(C(C)=O)CCO4)CC2)cc1	7	i	-1	-13	15	-2	4	nt
COC(=O)C1CCN(C(=O)c2ccc3nccnc3c2)CC1	-12	i	-2	6	-5	0	-13	-15
Cc1ccc(CNC(=O)c2ccc(OCC3CCCO3)cc2)cc1 (stereo not drawn)	-9	i	7	8	-9	-6	nt	3
Cc1ccc(S(=O)(=O)N2CCN(c3ccnc4cc(Cl)ccc34)CC2)cc1C	-8	i	2	-5	41	-7	nt	29
Cc1ccc(C2C3=C(Nc4[nH]n(-c5ccccc5)c(=O)c42)c2ccccc2C3=O)cc1 (stereo not drawn)	-5	nt	nt	nt	13	-5	nt	nt
COc1cc(/C=C2/SC(=S)N(Cc3ccccc3)C2=O)ccc1OS(C)(=O)=O	-12	i	4	1	29	-11	-9	22
CC1=C(C(=O)NCCc2ccc(C)cc2)C2(CCC(C)CC2)OC1=O (stereo not drawn)	-2	i	4	1	6	9	-16	19
Cc1csc(SCC(=O)NC(=O)NC2CCCC2)n1	-1	i	2	-3	-19	2	-9	9
Cc1cc(C[n+]2cc(Br)ccc2N)c2ncccc2c1	1	i	-1	2	6	2	nt	-2
COCCCNC(=O)CCN1C(=O)COc2ccccc21	-2	i	8	5	-7	-3	-20	nt
N=c1sccn1CC(=O)NC(=O)NC1CCCC1	0	i	-1	3	nt	-10	-25	31
CCOCCCNC(=O)c1c[nH]c2ccc(OCC)cc2c1=O	-2	i	1	-4	-10	-2	-2	-4
CCSc1nc(N)c2c(C)c(C)sc2n1	6	i	5	2	4	2	nt	-107
CCc1nc2ccccc2c(=O)n1/N=C/c1ccc(OC)cc1	nt	i	1	-2	-6	nt	nt	0
COc1ccc(/C(O)=C2/C(=O)C(=O)N(CCN3CCNCC3)C2c2cccc([N+](=O)[O-])c2)cc1 (stereo not drawn)	0	i	-1	0	0	12	-25	4
COc1ccc(N2CCN(CC(=O)Nc3ccc(C)c(C)c3)CC2)cc1	-1	i	-4	2	-17	4	-11	12
CC1(C)CC(=O)C2=C(C1)Oc1ncn(CCO)c(=N)c1C2c1ccccc1 (stereo not drawn)	-2	i	4	4	6	-5	1	nt
COc1ccc(CN(C(=O)CSc2nnc(-c3ccccc3F)o2)c2ccc(F)cc2)cc1	-2	i	-4	-3	11	10	-22	nt
Cc1ccc(-c2nnc(CCC(=O)NCC3C4CC5CC(C4)CC3C5)o2)s1 (stereo not drawn)	-8	i	0	2	1	2	nt	19
CC[C@H](C)[C@H]1CNC(=S)N1CC1CCN(CCCC2CCCC2)CC1	nt	nt	3	4	nt	nt	-7	23

Next compounds.
SMILES	eIF4H FP inh	Rce1 inh	MT1-MMP act inh	MT1-MMP act inh RFP	CSC inhib	PABP FP inh	UUG fidelity	Env fusion inh	others
O=C(CCN1C(=O)/C(=C/c2ccccc2Cl)SC1=S)NC1CCS(=O)(=O)C1 (stereo not drawn)	17	i	3	4	-10	-7	-19	-3
O=C(CSCc1ccc(Cl)cc1)Nc1ccccc1C(=O)N1CCOCC1	-11	i	5	5	-7	-8	-11	nt
Cc1nnc(C)n1/N=C/c1ccc(O)cc1	0	i	-2	4	-4	18	4	nt
C=CCN1C(=O)c2ccc(C(=O)N3CCN(c4ccccc4OC)CC3)cc2C1=O	nt	i	0	3	2	nt	1	-11
CC(=O)NCC(=O)NC(C(=O)Nc1ccc2c(c1)OCCO2)c1ccc(C)cc1 (stereo not drawn)	-7	i	11	10	-16	-6	1	nt
CCN1C[C@@H]2[C@@H]3C(=O)N(Cc4ccccc4)C(=O)[C@@H]3[C@](Cc3ccccc3)(C(=O)OC)N2C1=NCc1ccccc1	nt	nt	-4	-2	nt	nt	-10	-2
Cc1ccc2ccccc2c1NC(=O)CNCc1ccccc1	nt	nt	-1	-2	nt	nt	-10	-1
COc1ccc(-n2c(CCc3ccccc3)nnc2SCC(=O)c2ccccc2)cc1	-2	i	-4	-6	4	21	nt	-1
COc1ccc(-c2nc3c(n2O)CCC/C3=N\O)cc1	-3	i	0	2	-6	4	-16	-76
O=C(O)CC(NC(=O)C12CC3CC(CC(C3)C1)C2)c1ccc(F)cc1 (stereo not drawn)	9	i	1	8	15	10	17	-4
Cc1cc(O)c(-c2cc(C(=O)Nc3cccnc3)[nH]n2)cc1C	-14	i	4	1	-8	-3	-13	-222
CCOc1cc2c(cc1OCC)C(c1ccccc1)N(c1ccccc1)C(=O)C2 (stereo not drawn)	-10	i	-9	-6	-3	35	-1	7
CC(=O)c1ccc(NC(=O)c2ccc3nc(C)sc3c2)cc1	-4	i	-2	-6	1	-6	-12	-16
C[C@@H]1CN([C@H](C)CO)C(=O)CCCn2cc(nn2)CO[C@H]1CN(C)C(=O)Nc1ccc2c(c1)OCO2	nt	nt	2	3	nt	nt	-12&1	-2
Cc1nn(C(C)C(=O)NCCCN2CCCCC2C)c(=O)c2c1sc1ccccc12 (stereo not drawn)	2	i	5	2	8	9	-5	-25
Cc1cc(C)nc(NS(=O)(=O)c2ccc(NC(=O)c3ccccc3Br)cc2)n1	nt	nt	4	4	nt	nt	0	-4

Rows were taken by chance; overall some 3% were active at least once.
